UUG fidelity – modulators of yeast start codon fidelity, primary screen, whole organism, S. cerevisiae, single point, plate reader; AID 602363, 2012; activity score, % at 18.7 µM; 350,000 tested, 0.13% active; S. cerevisiae UUG-firefly luciferase reporter, luminescence/redox ratio;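 active = replicate mean at a twofold rise or more, about +100% in these data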;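 note: firefly luciferase made from a UUG start codon reports start codon fidelity; reporter light over untreated wells divided by growth signal over untreated wells; some hits fall short of that in this replicate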
CSC inhib – cancer stem cell viability inhibitors, primary screen, luminescence; cancer stem cell-like cells viability; inhibition, % at 7.5 µM; 300,000 tested, 1.1% active;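 active = mean at 75% or more and at least half the replicates too; inconclusive = mean and replicates disagree; tested in HMLE shEcad cells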;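 note: 0% = median of negative and 100% = median of positive control wells; the first replicate is given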
PABP polyA inh – PABP poly(A) RNA binding inhibitors, primary screen, biochemical, fluorescence polarization, uHTS; Polyadenylate-binding protein 1 (Homo sapiens), P11940; inhibition, % at 35 µM; 290,000 tested, 1% active;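 active = 50% or more with normal probe brightness, or confirmed in later tests; inconclusive = above 50% with abnormal brightness, or retests that disagree; inactive = below 50% or failed in later tests; about a fifth of its hits are not listed in these tables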;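 note: calls also rest on retests at 20 µM and on dose response follow-up; controls were probe without protein and protein plus probe with vehicle; some compounds called inactive have numbers as strong as hits; many hits fall short of the cut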
Env fusion inh – inhibitors of HIV-1 Env-driven cell-cell fusion, primary screen, HeLa-JRFL effector, CEM21 target cells, luciferase; inhibition, % at 12.3 µM; 360,000 tested, 1.1% active; AID 651610, 2012;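 active = mean replicate inhibition score of at least 50 and every replicate individually at or above 50; inconclusive = only one of the two criteria met; inactive = mean below 50 and not all replicates reaching 50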;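 note: 0% = plate neutral controls and 100% = maraviroc near 300 nM; one replicate is shown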
MT1-MMP act inh – blockers of MT1-MMP proenzyme processing, primary screen, HT1080 RFP-PRO-GFP cells, GFP/RFP fluorescence. 360,000 tested, 0.061% active. GFP/RFP ratio fluorescence, overnight; percent of plate control window, DMSO zero. Matrix metalloproteinase-14 (Homo sapiens), P50281. AID 651647, 2012. GFP/RFP ratio change, % at 20 µM;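 active = GFP/RFP ratio change of at least 30% with cell ATP level not reduced by more than half and red fluorescence within 50% of control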; note: strong numbers were not always called active
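Test system: HT1080 RFP-PRO-GFP cells; Benchmarks: DMSO and RFP-L50D-GFP cell wells; Timing: cells overnight before dosing, compound overnight, 37 °C, 5% CO2; Compound: one 20 µM compound dose with 1% DMSO; Read-out: GFP/RFP fluorescence ratio.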
eIF4H inh – human eIF4H binding inhibitors, primary screen, translation initiation inhibitor project, biochemical, uHTS, fluorescence polarization. Eukaryotic translation initiation factor 4H (Homo sapiens), Q15056. eIF4H fluorescence polarization binding assay. inhibition, % at 35 µM. 290,000 tested, 0.94% active;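 active = 50% or more with normal probe brightness, or confirmed in later tests; inconclusive = above 50% with abnormal brightness, or retests that disagree; inactive = below 50% or failed in later tests; about a fifth of its hits are not listed in these tables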;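 note: calls also rest on retests at 20 µM and on dose response follow-up; 0% = protein and probe with vehicle and 100% = probe without protein; strong numbers were not always called active; many hits fall short of the cut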
Rce1 inh – yeast Rce1p protease inhibitors, primary screen, biochemical, fluorescence, cell-free homogeneous | CAAX prenyl protease 2 (Saccharomyces cerevisiae (strain ATCC 204508 / S288c)), Q03530 | yeast membranes, quenched prenylated peptide cleavage fluorescence | calls only | 290,000 tested, 0.27% active;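 active = fall in fluorescence gain of 50% or more versus controls, with final raw signal at or below 3038400; inconclusive = same 50% fall but final raw signal above 3038400; inactive = fall in fluorescence gain under 50%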;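 note: plate controls were neutral control wells for no effect and wells lacking membranes for full effect; tested at 10 µM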
Target sequence (Q03530 whole entry, looked up): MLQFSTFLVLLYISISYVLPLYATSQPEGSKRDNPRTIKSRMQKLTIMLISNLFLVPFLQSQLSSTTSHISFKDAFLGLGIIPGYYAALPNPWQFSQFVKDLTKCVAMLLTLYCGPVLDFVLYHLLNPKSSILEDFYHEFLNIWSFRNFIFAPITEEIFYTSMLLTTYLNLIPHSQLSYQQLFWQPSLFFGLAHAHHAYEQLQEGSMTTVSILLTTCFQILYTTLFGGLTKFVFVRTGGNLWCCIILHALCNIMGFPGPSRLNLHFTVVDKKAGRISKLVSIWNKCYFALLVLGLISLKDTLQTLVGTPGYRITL
eIF4H inh retest – further read-out of eIF4H inh, marked with its call; inhibition, %; compound at 20 µM; confirmation average;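 mean of two retest wells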
PABP polyA inh retest – second read-out of PABP polyA inh, no call of its own (marks repeat the call); inhibition, %; compound at 20 µM; confirmation repeats;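 mean of two retest wells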
MT1-MMP act inh RFP – recorded beside MT1-MMP act inh, whose call it bears; RFP signal change, %; measured here: RFP expression control read;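 0 = vehicle wells; hits needed this value within 50% of zero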
Active calls of the source: *; i = inactive; ? = inconclusive; . = not tested or not shown; & = joins results of further samples.

SMILES	UUG fidelity	CSC inhib	PABP polyA inh	Env fusion inh	MT1-MMP act inh	MT1-MMP act inh RFP	eIF4H inh	Rce1 inh	others
COc1ccccc1-c1ccc(Nc2ccc(C(=O)N3CCOCC3)cc2)nn1	16	2	-10	.	4	2	-3	i
Cc1cccc(N2CCN(S(=O)(=O)c3ccc(-c4ccc(=O)[nH]n4)o3)CC2)c1C	-16	47	-13	0	1	-7	-9	i
CC(NC(=O)CSc1nc2sc3c(c2c(=O)n1-c1ccccc1)CCCC3)c1ccccc1 (stereo unspecified)	-42	.	-1	103*	-9	-12	-13	i
O=C(CCN1CCN(S(=O)(=O)c2ccc(Br)cc2)CC1)Nc1ccccc1F	-6	-12	1	10	0	-3	-1	i
Cc1ccc(N2C(=N)/C(=C3/Nc4ccccc4S3)C(c3ccccc3)C2=O)cc1 (stereo unspecified)	.	31	0.6*	13	-12	-7	84*	.	eIF4H inh retest=93*;PABP polyA inh retest=73*
N#CCC(=O)N/N=C/c1c2ccccc2cc2ccccc12	0	-6	0	-6	-3	-1	1	i
CCOC(=O)N1CCC(N2C(=O)c3ccccc3C2=O)CC1	-14	-6	-1	-7	2	1	0	i
N#CCC1c2ccccc2CCN1C(=O)Nc1ccc(C(F)(F)F)cc1 (stereo unspecified)	9	9	-2	22	-8	-8	-8	i
O=S1(=O)CCC(NC(=S)Nc2ccc(Cl)cc2)C1 (stereo unspecified)	.	4	10	.	0	2	-6	i
O=C(CN1C(=O)c2ccccc2S1(=O)=O)NCCSCc1c(F)cccc1Cl	9	-2	-8	-5	-3	-1	-2	i
O=C(CSc1nc2ccccc2[nH]1)NCCc1ccc(Cl)cc1	-18	1	-3	-2	-2	-1	3	i
CCCc1cc(=O)oc2c(C)c(OCC(=O)N3CCC[C@@H]3C(=O)O)ccc12	8	-13	12	.	1	0	-8	i
CC(=O)c1ccc(NC(=O)CSc2nc(=O)n3cccc(C)c3n2)cc1	-17	-3	.	15	3	4	.	i
CCCN1CCc2nc(SCC(=O)Nc3ccc(C)c(Cl)c3)[nH]c(=O)c2C1	0	-6	-7	18	-5	-1	-9	i
CCC(=O)N1CCc2cc(Br)cc(S(=O)(=O)N3CCC(C(=O)NC(C)C)CC3)c21	-6	.	-1	6	0	1	-2	i
COc1ccc([C@H]2CC(=O)C=C(c3cccc(OC(F)(F)F)c3)C2)cc1	13	13	.	15	0	0	.	.
CC(=O)Oc1cccc(C(=O)Nc2c[nH]c(=O)[nH]c2=O)c1	.	-8	-3	-22	0	-2	-9	i
COCC(=O)Nc1cc(OC)c(Cl)cc1OC	-20	-1	-2	-40	-2	6	-4	i
CCOCCc1c(O)nc(SCC(=O)NCc2ccco2)[nH]c1=O	-15	-16	15	-118	-1	4	7	i
COc1ccc(C(C(=O)NC2CCCC2)N(CCCO)C(=O)Cn2nnc(-c3ccc(C)o3)n2)cc1 (stereo unspecified)	-20	-13	11	1	-1	-1	13	i

Eleven compounds already listed, sorted by molecular weight, largest number first.
SMILES	UUG fidelity	CSC inhib	PABP polyA inh	Env fusion inh	MT1-MMP act inh	MT1-MMP act inh RFP	eIF4H inh	Rce1 inh	others
COc1ccc(C(C(=O)NC2CCCC2)N(CCCO)C(=O)Cn2nnc(-c3ccc(C)o3)n2)cc1 (stereo unspecified)	-20	-13	11	1	-1	-1	13	i
CCC(=O)N1CCc2cc(Br)cc(S(=O)(=O)N3CCC(C(=O)NC(C)C)CC3)c21	-6	.	-1	6	0	1	-2	i
CCCN1CCc2nc(SCC(=O)Nc3ccc(C)c(Cl)c3)[nH]c(=O)c2C1	0	-6	-7	18	-5	-1	-9	i
CCCc1cc(=O)oc2c(C)c(OCC(=O)N3CCC[C@@H]3C(=O)O)ccc12	8	-13	12	.	1	0	-8	i
CC(=O)c1ccc(NC(=O)CSc2nc(=O)n3cccc(C)c3n2)cc1	-17	-3	.	15	3	4	.	i
COc1ccc([C@H]2CC(=O)C=C(c3cccc(OC(F)(F)F)c3)C2)cc1	13	13	.	15	0	0	.	.
N#CCC1c2ccccc2CCN1C(=O)Nc1ccc(C(F)(F)F)cc1 (stereo unspecified)	9	9	-2	22	-8	-8	-8	i
O=C(CSc1nc2ccccc2[nH]1)NCCc1ccc(Cl)cc1	-18	1	-3	-2	-2	-1	3	i
O=S1(=O)CCC(NC(=S)Nc2ccc(Cl)cc2)C1 (stereo unspecified)	.	4	10	.	0	2	-6	i
CCOC(=O)N1CCC(N2C(=O)c3ccccc3C2=O)CC1	-14	-6	-1	-7	2	1	0	i
CC(=O)Oc1cccc(C(=O)Nc2c[nH]c(=O)[nH]c2=O)c1	.	-8	-3	-22	0	-2	-9	i

The listing continues.
SMILES	UUG fidelity	CSC inhib	PABP polyA inh	Env fusion inh	MT1-MMP act inh	MT1-MMP act inh RFP	eIF4H inh	Rce1 inh	others
CCOc1ccccc1CN1CCC(CO)(CCOc2ccccc2)CC1	.	2	3	5	0	6	-3	i
Cc1ccc(C)c(NC(=O)Cn2nnc(-c3ccc(N4CCOCC4)cc3)n2)c1	.	8	11	-13	7	3	2	i
CC(C)(C)OC(=O)N1CCC(C(=O)Nc2ccc(C(=O)NCCc3ccccc3)cc2)CC1	-11	.	.	3	9	-2	.	.
CCOc1ccc(C(C)=O)cc1CSC(=N)N	.	0	-1	5	1	0	-13	i
O=C(C[N+]12CC[N+](CC(=O)c3ccc(F)cc3)(CC1)CC2)c1ccc(F)cc1	-20	1	28	10	-1	-1	2	i
O=C(CSc1cn(CC(=O)N2CCOCC2)c2ccccc12)N1CCOCC1	3	-5	0	-9	0	0	0	i
CC(C)C(=O)Nc1ccc(NC(=O)c2cccc(F)c2)cn1	14	-2	26	-25	2	2	0	i
CCN(C(=O)COC(=O)c1cc(S(=O)(=O)N2CCc3ccccc32)ccc1OC)C1CCS(=O)(=O)C1 (stereo unspecified)	.	-4	71	-4	2	6	3.9*	i	eIF4H inh retest=72*;PABP polyA inh retest=16
Cc1cc(SCC(=O)NCC(c2cccs2)N2CCOCC2)c(C)cc1Br (stereo unspecified)	16	-3	.	8	-2	-13	.	i
CCCC1C(c2ccc(OC)cc2)C(C#N)(C#N)C2(C#N)CC1(N)NC2=O (stereo unspecified)	-3	.	42*	-32	-4	3	58	i	eIF4H inh retest=31;PABP polyA inh retest=62*
CC(/C=C/c1ccccc1)=N\NC(=S)NC(C)C	-35	-2	6	1	3	2	4	i
Cc1ccc(C(C(=O)NC2CCCC2)N2CCCCC2)cc1 (stereo unspecified)	-12	-14	-16	14	0	6	-11	i
CCn1c(CCC(N)=O)nnc1SCC(=O)c1cc(C)n(C2CC2)c1C	-5	-11	.	5	1	2	.	.
CCOc1ccc(CN2CCN(C(=O)c3ccccc3)CC2)cc1	19	.	18	?	-4	-13	4	i
CC(=O)c1cccc(NS(=O)(=O)c2cc3c(cc2C)N(C(C)=O)CCO3)c1	-6	-10	2	-7	-1	0	-4	i
COc1ccc(C(=O)Nc2ccc(Cl)c(S(=O)(=O)N3CCOCC3)c2)cc1	.	13	.	?	3	-24	.	.
COc1ccc(C(=O)COC(=O)CCN=C2NS(=O)(=O)c3ccccc32)c(OC)c1	.	-13	.	0	1	1	.	i
CCOC(=O)Cc1csc(NC(=O)c2cccc(OC)c2)n1	-10	-8	9	-23	-1	1	-5	i
COC(=O)c1scc(C)c1NC(=O)C1CCCCC1	-9	-9	-3	-7	-3	-1	-3	i
O=c1c(-c2ccc(F)cc2)[n+]([O-])c2ccccc2n1OCc1ccccn1	-11	-1	10	4	-1	1	-3	i
CCn1ncc([N+](=O)[O-])c1C(=O)N1CCCC1	.	.	-2	.	-3	-1	-4	i
COC(=O)C1=C(C)N(Cc2ccccc2)C(=NCc2ccco2)N[C@H]1c1cccc(F)c1	-3	.	.	-30	-6	4	.	.
COc1ccc(Cl)cc1NC(=S)Nc1cccnc1	-13	-6	-12	4	1	1	-1	i
Cc1cc(C(=O)O)ccc1-c1ccc(/C=C2\NC(=O)N(Cc3ccccc3Cl)C2=O)o1	.	11	-7	.	-1	0	86	i	eIF4H inh retest=-2;PABP polyA inh retest=10
COc1cccc(OC)c1Oc1ccc(C(F)(F)F)cn1	0	-8	8	.	-1	-2	-33	i
C=CCn1c(COc2ccc(CC)cc2)nnc1SC/C(O)=C(\C#N)c1nc2ccccc2[nH]1	-6	8	54*	-31	-16	-1	66*	i
CCc1c(C)nc(SCC(=O)Nc2ccc(Br)cc2)[nH]c1=O	-17	18	1	17	-7	-2	5	i
Cc1nn(-c2ccccc2)c(Cl)c1C(=O)NCC1CCCO1 (stereo unspecified)	-13	.	.	-12	-1	4	.	.
O=C(CC1c2ccccc2Oc2ccccc21)Nc1ccccc1C(F)(F)F	.	8	8	.	-8	-8	18	i
NS(=O)(=O)c1ccc(NC(=O)/C(=C/c2ccncc2)NC(=O)c2ccccc2)cc1	-24	-9	-4	-5	3	2	-8	i
Cc1ccc(S(=O)(=O)N2CCN(C(=O)CSc3nc4ccccc4o3)C2)cc1	5	-9	1	.	0	-12	0	i
CCOCCOC(=O)C1=C(C)N(C)C(=O)NC1c1ccccc1F (stereo unspecified)	7	-15	8	1	-1	1	-4	i
Fc1ccc2[nH]c3c(NCCN4CCOCC4)ncnc3c2c1	-11	-4	-1	.	8	-7	-7	i
NC(=O)c1nsc(C(=O)N(c2ccc(F)cc2)C(C(=O)NCC2CCCO2)c2ccc3ncccc3c2)c1N (stereo unspecified)	0	0	4	-4	5	4	-8	i
CCN(CC)S(=O)(=O)c1ccc(-c2cn3cc(Cl)ccc3n2)cc1	-9	20	-8	-25	-2	-3	-6	.
COc1ccccc1NC(=O)N(C)C[C@@H]1OCc2ccccc2-c2c(n(C)c3ccccc23)C(=O)N([C@H](C)CO)C[C@@H]1C	-18	.	.	67*	0	-2	.	.
CCn1cc(S(=O)(=O)NCc2ccc3c(c2)OCO3)cn1	-1	1	10	15	1	6	6	i
CCc1cc2c(=O)c(-c3nc4ccccc4n3C)coc2c(CN2CCN(C)CC2)c1O	-21&1	12	-8	.	-3	0	-8	i
O=C1COc2ccc(NC(=O)N3CCN(c4ccc(F)cc4)CC3)cc2N1	-12	9	-18	1	1	-2	-7	i
CC(=O)Nc1ccc(NC(=O)c2ccccc2-n2cnnn2)cc1	-15	.	.	-19	4	8	.	.
c1ccc2c(c1)COC(CN1CCCCC1)OC2	.	-4	-4	17	0	1	0	i
Cc1cc(C)c(NC(=O)c2ccc(CNS(=O)(=O)c3cc(C(F)(F)F)ccc3Cl)cc2)c(C)c1	.	-1	-3	18	-1	-9	-4	i
Cc1cc(=O)oc2cc(O[C@@H]3O[C@H](CO)[C@H](O)[C@H](O)[C@H]3O)ccc12	-18	13	0	17	-3	2	4	i
